ALR H2O2 inh: inhibitors of human ALR sulfhydryl oxidase, primary screen, biochemical, H2O2 detection, HRP-luminol luminescence, single point | purified ALR, DTT oxidation | inhibition, % (test concentration not listed) | FAD-linked sulfhydryl oxidase ALR (Homo sapiens), P55789 | 3.8% of 290,000 active;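 active = mean and each replicate at 75% or more; inconclusive = only one of the two met; inactive = neither met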;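 also: stock transfer was 7.5 nL into about 7.5 µL; 0% = neutral wells and 100% = wells with inactivated enzyme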
Target sequence (P55789 whole entry, looked up): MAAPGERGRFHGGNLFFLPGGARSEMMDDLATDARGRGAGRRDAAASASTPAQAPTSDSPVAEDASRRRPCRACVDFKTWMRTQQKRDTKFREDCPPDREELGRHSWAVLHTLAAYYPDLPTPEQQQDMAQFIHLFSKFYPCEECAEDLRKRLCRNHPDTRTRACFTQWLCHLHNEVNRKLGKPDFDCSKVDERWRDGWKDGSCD
Vif A3G: inhibitors of Vif binding to APOBEC3G peptide, primary screen, biochemical, TR-FRET, GST-Vif 1-94, biotin-A3G peptide, dose response retest (AID 1117319); Virion infectivity factor (Human immunodeficiency virus type 1 group M subtype B (isolate …; TR-FRET GST-Vif / biotin-A3G peptide binding; higher % means a stronger effect; test concentration not given here; strong numbers were not always called active; inhibition, %; hits with a dose series show IC50 in µM; 0.57% of 260,000 active;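 active = above the screen mean plus three standard deviations and confirmed in dose response; inconclusive = results disagree or hit not tested in dose response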;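 also: Vif residues 1-94 fused to GST binding biotinylated APOBEC3G peptide 110-148; 0% = full assay without inhibitor and 100% = GST in place of GST-Vif; retest series ran down from 100 µM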
E coli growth: E. coli growth inhibition, primary screen, OD600. Escherichia coli growth, 23 h; active compounds read low. OD600 absorbance (test concentration not listed). 0.21% of 330,000 active. AID 1053175, 2014;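 active = OD600 absorbance below the run mean of sample wells minus 3.6 SD, in any replicate, cut at about 0.56 in these data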;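 also: stock transfer was 300 nL into about 60 µL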
rRNA inh HTS: reduced GFP signal of wild-type E. coli, primary screen, bacterial rRNA inhibitor project, GFP/RFP fluorescence, OD600, single point; AID 720706, 2013; E. coli WT GFP vs humanized-ribosome RFP mutants, 24 h; active compounds read low; DMSO median 0, no signal -100; 1.6% of 350,000 active; GFP signal change (wild-type ribosome), % (concentration not given with the values);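 active = significant combined selectivity score with lowered wild-type GFP, culture density cut under 30%, mutant RFP and density less affected; inactive = any of these conditions unmet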; also: one replicate is shown; some compounds called inactive have numbers as strong as hits
HNF4A DNA FP: change in binding of human HNF4A to DNA, primary screen, biochemical, fluorescence polarization, FITC-DNA | 1 h | AID 1224865, 2016 | 0.3% of 360,000 active | Hepatocyte nuclear factor 4-alpha (Homo sapiens), P41235 | activity change, % at 10 µM; in the data active = activity change above about 30%, passing the limit was not always enough;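 also: controls were the assay level and a saturating level of protein; the project sought stronger binding though the title names inhibitors; some compounds called inactive have numbers as strong as hits; positive values seem to mean higher polarization but the record does not say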
MLL AF4-AF9 inh: inhibitors of AF4 peptide binding to AF9, primary screen, biochemical, AlphaScreen, biotin-AF4 peptide, FLAG-AF9, single point; Protein AF-9 (Homo sapiens), P42568; inhibition, % at 10 µM; 0.47% of 350,000 active; AID 651704, 2012;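 active = every replicate reaching a set inhibition limit, whatever the replicate mean, cut at about 25% in these data; inconclusive = mean inhibition reaches that limit but some replicates miss it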;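 also: 0% = plate neutral control median and 100% = total signal loss; the record names both 10 and 1 µM as test concentration; the first replicate is given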
Target sequence (P42568 whole entry, looked up): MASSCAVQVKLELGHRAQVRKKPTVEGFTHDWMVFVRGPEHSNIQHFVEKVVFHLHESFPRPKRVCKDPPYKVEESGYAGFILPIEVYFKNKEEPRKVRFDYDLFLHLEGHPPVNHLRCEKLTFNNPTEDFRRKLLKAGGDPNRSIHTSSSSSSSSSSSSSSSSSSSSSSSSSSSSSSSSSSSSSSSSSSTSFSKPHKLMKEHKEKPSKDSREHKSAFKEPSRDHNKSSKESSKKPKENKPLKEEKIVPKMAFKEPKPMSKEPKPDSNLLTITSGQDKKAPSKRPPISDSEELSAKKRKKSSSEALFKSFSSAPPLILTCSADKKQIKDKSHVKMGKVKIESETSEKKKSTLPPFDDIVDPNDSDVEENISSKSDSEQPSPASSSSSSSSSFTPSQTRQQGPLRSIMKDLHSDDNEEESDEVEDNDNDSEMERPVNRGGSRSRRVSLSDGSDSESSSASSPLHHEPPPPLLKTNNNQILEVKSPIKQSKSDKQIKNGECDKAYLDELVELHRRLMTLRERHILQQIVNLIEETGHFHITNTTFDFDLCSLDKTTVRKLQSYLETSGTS
FGF22 binding: binders of human FGF22 protein, primary screen, FGF22 synaptogenesis inhibitor project, biophysical, thermal shift, single point | recombinant FGF22 thermal shift, SYPRO orange fluorescence; percent of sucrose octasulfate shift, DMSO zero | 1.5% of 340,000 active | Fibroblast growth factor 22 (Homo sapiens), Q9HCT0 | calls only at 9.99 µM;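 active = melting point raised past a set limit in the mean and every replicate; inconclusive = no clear call; three in four hits are not shown here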
Target sequence (Q9HCT0 whole entry, looked up): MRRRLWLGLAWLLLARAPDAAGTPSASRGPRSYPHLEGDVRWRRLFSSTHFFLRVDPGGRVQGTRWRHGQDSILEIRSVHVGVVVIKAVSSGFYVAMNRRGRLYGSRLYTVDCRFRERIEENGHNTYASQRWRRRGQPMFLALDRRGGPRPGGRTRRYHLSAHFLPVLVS
rRNA inh HTS OD600: second read-out of rRNA inh HTS, no call of its own (marks repeat the call); OD600 change, %; measured here: OD600 growth;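 optical density of the mix in the first replicate; 0 = DMSO median and -100 = no signal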
rRNA inh HTS RFP: recorded beside rRNA inh HTS, whose call it bears; RFP signal change, %; measured here: RFP humanized mutant strains;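 first replicate; 0 = DMSO median and -100 = no signal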
Starred values were filed as active, the others as inactive; i = inactive; ? = inconclusive; . = no result given; & = joins results of further samples. An excerpt, so the mix of outcomes need not match the whole.

no.	Molecule	rRNA inh HTS	FGF22 binding	rRNA inh HTS RFP	HNF4A DNA FP	rRNA inh HTS OD600	E coli growth	Vif A3G	ALR H2O2 inh	MLL AF4-AF9 inh
1	COc1ccc(N=C2SCC(=O)N2C)cc1	17	i	5.6	-2.6	20	.	-3%	.	-0.8
2	CC(=O)Nc1ccc(NC2(C)C(=O)c3ccccc3C2=O)cc1	.	.	.	0.1	.	0.74	1%	.	.
3	CCCC(=O)Nc1ccc2c(c1)C(=O)N(C)C[C@H](OC)[C@H](C)CN(Cc1ccccc1)[C@H](C)CO2	1	i	-2.8	.	3	.	.	.	6.2
4	O=C(CSc1ccccc1)Nc1nnc(/C=C/c2ccccc2)s1	.	.	.	-1.9	.	0.68	8%	14	.
5	CC1CCCCN1C(=O)Cn1c(=O)n(CCC(=O)NCc2ccco2)c(=O)c2sccc21 (configuration not stated)	.	.	.	0.3	.	0.75	0%&0%	-5	.
6	CN(CCC1CCOCC1)C(=O)CC1C(=O)NCCN1Cc1ccoc1 (configuration not stated)	19	.	1.8	-0.7	18	0.69	-5%	-2	-0.7
7	C=CCc1ccccc1OCC(O)CNC1CCCC1 (configuration not stated)	11	i	1.4	5.3	13	0.67	.	-1	7.6
8	O=S(=O)(Nc1c(O)ccc2ccccc12)c1cccc2ccccc12	.	.	.	6.5	.	0.66	.	87*	.
9	CCN(C(=O)COc1ncnc2ccccc12)C1CCCCC1	4	i	6.6	-0.5	8	0.67	0%	.	-2.0
10	COc1cc(OC)c(NC(=O)C(=O)CC(=O)c2ccc(C)cc2C)cc1Cl	-2	i	-0.1	10	-2	0.68	4%	1	-5.1
11	C[C@H](CO)N1C[C@H](C)[C@H](CN(C)C(=O)NC2CCCCC2)Oc2cc(/C=C/c3ccccc3)ccc2S1(=O)=O	-2	i	-2.2	.	-6	.	.	.	3.2
12	NC(=O)c1ccc(NC(=O)COC(=O)c2cc3c(s2)CCC3)cc1	9	i	2.9	-14	7	0.67	27%	2	-1.4
13	Cc1c(-c2ccccc2)cn2c1-c1ccc(C)n1CC2	.	.	.	22	.	0.72	11%	-4	.
14	O=C(CCC1CCCC1)c1c(O)c2ccccc2oc1=O	-46	i	-11	3.9	-59	0.7	?	93*	-5.8
15	CC(=O)/C(C=Nc1noc(C)c1Br)=C(\C)O	8	i	3.5	1.0	11	0.65	.	-10	-1.5
16	Brc1ccc(COc2cccc3cccnc23)cc1	-37	i	-1.4	-14	-42	0.63	.	6	-1.3
17	CCOCCCNC(=O)c1ccc2c(=O)n(Cc3ccc(OC)cc3)c(=O)[nH]c2c1	5	i	3.6	1.4	4	0.7	?	5	?
18	CCN(NC(=O)C(O)(c1ccccc1)c1ccccc1)C(=O)c1ccccc1	.	.	.	0.2	.	0.74	8%	-5	.
19	Cc1ccc(S(=O)(=O)N(C)c2ccc(C(=O)Nc3ccc(C)cn3)cc2)cc1	-26	i	-8.7	3.8	-26	0.63	2%	0	0.4
20	CN(C)c1ccc(N=Nc2cccc3ccoc23)cc1	-15	i	2.8	4.4	0	.	3%	86*	18
21	O=C(CN1CCN(Cc2cccc(Cl)c2)C1=O)NCc1ccccn1	4	i	-2.2	2.8	8	0.69	?	-19	3.0
22	C[C@@H]1CN([C@@H](C)CO)C(=O)c2cc(NC(=O)C3CCCCC3)ccc2O[C@@H](C)CCCCO[C@@H]1CN(C)Cc1ccncc1	4&-3	i	-5.7&1.6	2.6	-1&0	.	3%	.	0.4&-1.3&-5.9
23	CN(Cc1ccc(F)cc1)C(=O)c1cccc(OCc2ccccc2)c1	-21	i	-13	7.3	-57	0.64	.	.	-1.4
24	Cc1ccc(N(C(C)C(=O)Nc2cccc(N(C)S(C)(=O)=O)c2)S(C)(=O)=O)cc1 (configuration not stated)	3	i	3.2	-2.9	0	0.68	27%	-2	0.6
25	COc1cccc2c(=O)n(CC(=O)N3CCCCCC3)ccc12	4	i	-0.6	0.0	3	0.73	-1%	-4	-2.7
26	COCC1CCN(C(=O)c2cc(COc3ccc4ncccc4c3)on2)CC1	-7	i	-5.8	-8.6	-2	0.68	7%	.	-0.6
27	COc1cc(C(=S)N2CCCC2)cc(OC)c1O	.	.	.	1.3	.	0.65	13%	14	.
28	COC(=O)c1ccc(CN2CCN(Cc3ccc(C(=O)OC)o3)CC2)o1	.	.	.	-1.9	.	0.79	-1%	-4	.
29	CN(C)CC(=O)Nc1ccc2c(c1)[C@@H]1C[C@H](CC(=O)NCc3ccc(Cl)cc3)O[C@H](CO)[C@@H]1O2	2	i	-3.1	.	-2	.	.	.	-0.3
30	O=C(Nc1csnn1)OCc1ccccc1	2	i	-0.6	1.2	2	.	.	.	-5.0

Overlap with the part before: 4 entries; new compounds follow.
no.	Molecule	rRNA inh HTS	FGF22 binding	rRNA inh HTS RFP	HNF4A DNA FP	rRNA inh HTS OD600	E coli growth	Vif A3G	ALR H2O2 inh	MLL AF4-AF9 inh
27	COc1cc(C(=S)N2CCCC2)cc(OC)c1O	.	.	.	1.3	.	0.65	13%	14	.
28	COC(=O)c1ccc(CN2CCN(Cc3ccc(C(=O)OC)o3)CC2)o1	.	.	.	-1.9	.	0.79	-1%	-4	.
29	CN(C)CC(=O)Nc1ccc2c(c1)[C@@H]1C[C@H](CC(=O)NCc3ccc(Cl)cc3)O[C@H](CO)[C@@H]1O2	2	i	-3.1	.	-2	.	.	.	-0.3
30	O=C(Nc1csnn1)OCc1ccccc1	2	i	-0.6	1.2	2	.	.	.	-5.0
31	CC=Cc1ccc2n(c1=O)C[C@@H]1[C@@H](CO)[C@H](C(=O)N[C@@H](C)c3ccccc3)N(C(=O)c3cnccn3)[C@H]21 (mixture of isomers)	-1	i	1.1	.	-2	.	.	.	-1.2
32	CCN(c1ccccc1)S(=O)(=O)c1ccc(NN)nc1	1	i	-1.9	1.6	-3	0.68	-2%	-2	1.7
33	CC1(C)CC(=O)C2=C(C1)OC1=C(C(=O)CC(C)(C)C1)C2c1ccccc1	.	.	.	-0.3	.	0.7	-21%	-2	.
34	O=C(CSCc1ccc(Cl)cc1)N/N=C/c1ccc(OCC(=O)Nc2ccccc2)cc1	.	.	.	-1.6	.	.	7%	0	.
35	COc1ccc2cc(CN(CCc3ccccc3)Cc3nnnn3Cc3ccco3)c(=O)[nH]c2c1	.	.	.	3.4	.	0.77	?	.	.
36	COC(=O)c1c(NC(=O)C2COc3ccccc3O2)sc2c1CCN(C(=O)OC)C2 (configuration not stated)	1	i	5.7	-0.6	12	.	.	.	-1.1
37	CCN(CC)S(=O)(=O)c1ccc(N2CCCC2)c(NC(=O)C2=NN(c3ccccc3)C(=O)CC2)c1	-1	i	3.5	-2.0	-6	0.73	0%	4	5.3
38	CCC(=O)N1C[C@H]2[C@@H](c3ccccc31)[C@H](CO)N2C(=O)CC1CC1	1	i	0.5	.	0	.	.	.	-1.3
39	COC(=O)C[C@H]1CC[C@H]2[C@H](COc3ccc(NC(=O)Nc4cccc(Cl)c4)cc3C(=O)N2C)O1	-7	i	13	.	-48	.	.	.	1.3
40	CC(=O)Nc1ccc(S(=O)(=O)N2CCC(C(=O)O)CC2)cc1	25	.	2.8	1.3	30	0.64	-7%	2	?
41	Cc1ccc(S(=O)(=O)Nc2ccccc2/C=N/c2nc3ccccc3n2C)cc1	.	.	.	-1.1	.	.	11%	-6	.
42	CCOC(=O)N/N=C\c1cccc(OC)c1	10	i	2.6	2.8	5	.	.	32	-0.1
43	CC(C)NC(=O)CCCc1ccccc1	.	.	.	-1.6	.	0.72	-1%	-31	.
44	C[C@H](CO)N1C[C@H](C)[C@@H](CN(C)S(=O)(=O)c2cccs2)Oc2c(NC(=O)Nc3ccc(C(F)(F)F)cc3)cccc2C1=O	-3	i	-1.1	.	-4	.	.	.	-1.1
45	CCC(=O)N1CC[C@H]2[C@H](CO)Nc3ccc(-c4ccc(C(=O)N(C)C)cc4)cc3[C@H]21	1	i	-2.6	.	9	.	.	.	1.0
46	CCCOc1ccc(F)cc1-c1cc(C(=O)Nc2ccccc2)[nH]n1	9	i	3.4	3.2	2	.	.	.	-0.1
47	C[C@H](CO)N1C[C@H](C)[C@H](CN(C)Cc2ccc(C(=O)O)cc2)Oc2ccc(NC(=O)NC3CCCCC3)cc2CC1=O	2	i	-3.5	.	1	.	.	.	-4.0
48	NNc1ccc([N+](=O)[O-])c2[nH][nH]c(=O)c12	-18	i	36	-71	27	.	1.9µM*	.	3.1
49	O=C1NC[C@H](CCCCN2C[C@H](Cc3ccc(O)cc3)N(Cc3ccccc3)C(=O)C2=O)N(CCc2ccc(O)cc2)C1=O	-3	i	6.1	-0.5	-3	.	.	.	-0.8
50	Cc1cc(C(=O)Nc2cc(C)on2)on1	1	i	-0.9	5.5	12	0.67	.	3	-4.7
51	COc1cccc(CNC(=O)C[C@H]2CC[C@@H](NC(=O)C3CC3)[C@@H](CO)O2)c1	1	i	-2.8	.	-1	.	.	.	-1.0
52	c1ccc(CCNc2nc(-c3ccncc3)nc3ccccc23)cc1	.	i	.	-2.3	.	0.71	-25%	-5	5.8
53	CCOC(=O)N1CCN(C(=O)c2cn(CC)c3ccc(S(=O)(=O)N4CCC(C)CC4)cc3c2=O)CC1	-1	i	1.7	1.0	8	0.66	-8%	-11	-4.2
54	O=C(CSc1nc(-c2ccco2)cc(C(F)(F)F)n1)NCc1cccs1	.	.	.	2.9	.	0.73	-7%	-5	.
55	CC1CCc2c(nc3ncnn3c2N2CCN(c3ccccc3)CC2)C1 (configuration not stated)	-10	.	-4.9	-2.9	-6	0.71	10%	99*	.
56	Cc1cc(C)c(Nc2ncnc(N)n2)c(C)c1	16	i	-0.1	-4.6	10	0.62	16%	-2	-0.8
57	CN1CCN(S(=O)(=O)c2cnccc2N2CCN(c3cccc(Cl)c3)CC2)CC1	-9	i	8.1	3.4	-16	0.68	-10%	-13	5.2
58	CC(NC(=O)c1ccc(N2CCCC2=O)cc1)c1ccccc1 (configuration not stated)	-3	i	-4.8	3.1	2	0.64	1%	.	2.3
59	COc1cccc(S(=O)(=O)Nc2ccc3c(c2)C(=O)N(C)C[C@H](OC)[C@H](C)CN(C(=O)Cc2cccnc2)[C@H](C)CO3)c1	2	i	1.0	.	3	.	.	.	-1.0
60	CN(C)c1ccnc(Oc2ccc(Cl)cc2)c1C#N	-7	i	-4.9	3.5	-10	0.67	-8%	0	4.5
61	Cc1ccc(/C=C/c2nc3ccccc3c(=O)n2CCc2ccccc2)cc1	.	.	.	-2.6	.	0.7	.	-2	.
62	COC(=O)[C@@]1(C)[C@H]2C(=O)N(C)C(=O)[C@H]2[C@H]2CN=C(SC)N21	19	i	0.7	1.1	11	0.7	-5%	.	-0.1
63	Cc1ccc2sc(N3CCN(CCNC(=O)c4ccco4)CC3)nc2c1C	-25	i	-0.8	-0.9	-32	0.68	3%	-10	8.0

Screening data deposited in PubChem BioAssay by several laboratories.
